YjeE inh: qHTS Assay for Inhibitors of YjeE; tRNA threonylcarbamoyladenosine biosynthesis protein TsaE (Escherichia coli (strain …; purified YjeE, fluorescence polarisation of a bound ADP probe; Potency, µM; hit rate 0.05% among 71,000; active = well fitted falling curve; inconclusive = weaker or top-dose-only fall, or a rising curve; inactive = flat or poorly fitted curve;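 also: top concentration of the series not given in the record; excess ADP was the control for the full effect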
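Fluorescence polarization of a BODIPY Texas Red–ADP probe (2 uM) bound to purified YjeE (10 uM) was read after 15 min room-temperature incubation with compounds. Loss of polarization marks inhibitors; ADP serves as titrated control.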
PK Bst: Pyruvate Kinase. partly purified Bacillus stearothermophilus pyruvate kinase, luminescence ATP production; ribose 5-phosphate activator present at AC10. Potency, µM. hit rate 1.2% among 51,000; in the data active means potency below about 11 µM; inconclusive means mostly about 12 µM to 25 µM; inactive means weaker than that;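 the screen sought inhibitors and activators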;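 also: potency is read from the fitted curve at half-maximal effect; scaled between full activation by ribose 5 phosphate and full inhibition by luteolin; about four in five hits inhibit and the cells do not say which; series up to 57 µM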
Starred values were filed as active, the others as inactive; & = joins results of further samples. Not all compounds are listed, so the mix of outcomes need not match the whole.

`O=C(CNS(=O)(=O)c1cccc(C(F)(F)F)c1)Nc1ccccc1F` gave YjeE inh inactive and PK Bst >57.
Screening O=C(Nc1ccc(Br)cc1F)c1ccc2c(c1)N(Cc1ccccc1)C(=O)CS2=O (stereo not given) returned YjeE inh inactive.
Screening O=C(CN1C(=O)c2cccc3cccc1c23)NCc1cccnc1 returned YjeE inh inactive and PK Bst inactive.
For CCc1cccc(NC(=O)c2ccc(Br)o2)c1 the results were YjeE inh inactive and PK Bst >57.
Screening CC(C)[C@H](NC(=O)Nc1ccc(Oc2ccccc2)cc1)C(=O)O returned YjeE inh inactive and PK Bst >57.
`COc1ccc(OC)c(NC(=O)CCCN2C(=O)C3C4C=CC(C4)C3C2=O)c1` (stereo not given) gave YjeE inh inactive and PK Bst >57.
For CC(C)C(C)(C#N)NC(=O)CSc1nnc(-c2ccncc2)n1Cc1ccccc1 (stereo not given) the results were YjeE inh inactive and PK Bst >57.
COCCNCC#CCOc1ccc(OC)cc1 was read as YjeE inh inactive and PK Bst >57.
Screening COc1ccc(CC(=O)Nc2ccc(-c3noc(COc4ccccc4C)n3)cc2)cc1 returned YjeE inh inactive and PK Bst >57.
O=C(O)CSc1ccc(N=C=S)cc1 was read as YjeE inh inactive.
COc1ccccc1OCCNC(=O)c1ccccc1C was read as YjeE inh inactive and PK Bst >57.
COCCCN1C(=O)C(=O)/C(=C(/O)c2ccc3c(c2)CC(C)O3)C1c1cccnc1 (stereo not given) was read as YjeE inh inactive and PK Bst >57.
For COCCNc1nc2c(c(=O)n(Cc3ccc(OC)cc3)c(=O)n2C)n1C the results were PK Bst >25.6.
CCCN(CCC)c1nc2ccccc2n2c(C)nnc12 was read as YjeE inh inactive and PK Bst >57.
`CC(=O)c1c(C)[nH]c(C(=O)N2CCN(c3ncccn3)CC2)c1C` gave YjeE inh inactive.
For O=C(Oc1cccc(C(=O)N2CCOCC2)c1)c1ccc(Br)cc1 the results were YjeE inh inactive.
For COC(=O)c1sc(NC(=O)C(C)C)c(C(=O)OC)c1C the results were PK Bst >25.6.
`O=C(NCCNC[C@@H](O)COc1ccc(O)cc1)N1CCOCC1` gave YjeE inh inactive.
For CC(C)C[C@@H](CC(=O)N[C@H](CC(=O)N[C@@H]1CCCC[C@H]1C(=O)N[C@H](CC(=O)N[C@@H](CCC(=O)O)CC(=O)O)Cc1ccccc1)C(C)C)NC(=O)[C@@H]1CCCC[C@H]1N the results were YjeE inh inactive.
`Nc1nc(SCc2ccc(Cl)cc2Cl)n[nH]1` gave YjeE inh inactive and PK Bst inconclusive.
COc1ccc2[nH]cc(CCNc3ccnc(-c4cccnc4)n3)c2c1 was read as YjeE inh inactive.
`O=C(NCCCc1ccccc1)c1ccncc1` gave YjeE inh inactive.
For COc1ccccc1-c1nnc2sc(COc3ccc(Cl)cc3)nn12 the results were YjeE inh inactive.
`CCc1c(C)[nH]c(=S)c(C#N)c1C` gave YjeE inh inactive and PK Bst >57.
Screening Cc1csc(Sc2nc3c(c(=O)[nH]c(=O)n3C)n2Cc2ccccc2Cl)n1 returned YjeE inh inactive and PK Bst >57.
CN(C)S(=O)(=O)N(CC(=O)Nc1ccccc1F)c1ccccc1 was read as YjeE inh inactive and PK Bst >57.
`O=C(CCSc1nc(-c2ccco2)cc(C(F)(F)F)n1)N1CCN(c2ccccc2)CC1` gave YjeE inh inactive and PK Bst >57.
`CCCCOc1ccc(-c2ncc(C(=O)OCC)c(N)n2)cc1` gave YjeE inh inactive.
O=C(O)C1C2C=CC(C2)C1C(=O)NCCC1=CCCCC1 (stereo not given) was read as YjeE inh inactive.
For NS(=O)(=O)c1ccc(CCNC(=O)C2CCCCN2S(=O)(=O)c2ccccc2)cc1 (stereo not given) the results were YjeE inh inactive and PK Bst >57.
Screening COc1ccccc1N1CC(C(=O)Nc2cccc(C(=O)O)c2)CC1=O (stereo not given) returned YjeE inh inactive and PK Bst >57.
`Cc1cc(C(=O)N2CCN(C/C=C/c3ccccc3)CC2)cs1` gave YjeE inh inactive and PK Bst >57.
Cc1ccc(-c2nn3c(C)nnc3s2)cc1NC(=O)c1ccc(-c2cccc(Cl)c2)o1 was read as YjeE inh inactive and PK Bst >57.
CCCc1ccc(C(=O)N2CCN(c3ccccc3OCC)CC2)cc1 was read as YjeE inh inactive and PK Bst >57.
CCCCOc1ccc(C(=O)Nc2ccc(N3CCN(C)CC3)cc2)cc1 was read as YjeE inh inactive and PK Bst >57.
CCOC(=O)c1cc(NC(=O)SCC(=O)O)c(C)nc1C was read as YjeE inh inactive and PK Bst >57.
`CN(C(=O)COc1ccccc1)c1nnc(-c2cccnc2)s1` gave YjeE inh inactive and PK Bst >57.
Cc1ccc(N(CC(=O)NC2CC3CCC2C3)S(C)(=O)=O)cc1C (stereo not given) was read as YjeE inh inactive.
Screening O=C(CN1CCCCC1)Nc1cccc(-n2cnnn2)c1 returned YjeE inh inactive and PK Bst >57.
`COCCOC(=O)C1=C(C)NC2=C(C(=O)CCC2)C1c1ccc(N(C)C)cc1` (stereo not given) gave YjeE inh inactive.
`COc1cccc(-c2cc3nc(-c4ccccc4)cc(N4CCC5(CC4)OCCO5)n3n2)c1` gave YjeE inh inactive.
For Fc1ccccc1COc1cccc(/C=N/n2cnnc2)c1 the results were YjeE inh inactive.
`OCC#Cc1cnc2ccccc2c1` gave YjeE inh inactive.
For CC(=O)N(c1cccc(Br)c1)C1C=CS(=O)(=O)C1 (stereo not given) the results were YjeE inh inactive and PK Bst >57.
Screening CSc1nncc(=O)[nH]1 returned PK Bst >25.6.
For C=CCn1c(C)cc(C(=O)COc2nncc3ccccc23)c1C the results were YjeE inh inactive.
`CCOc1ccccc1-n1c(SCC(N)=O)nnc1-c1ccc(O)cc1` gave YjeE inh inactive and PK Bst >57.
Screening CN(C(=O)CSc1nc2c(c(=O)[nH]1)CCCC2)C1CCCCC1 returned YjeE inh inactive and PK Bst >57.
COc1ccc(CCn2c(=O)[nH]c3cc(C(=O)NCCCN4CCOCC4)ccc3c2=O)cc1OC was read as YjeE inh inactive and PK Bst >57.
For O=C(N=C1SCC(=O)N1c1ccccc1Cl)c1ccco1 the results were YjeE inh inactive.
For O=P1(O)C=C(c2ccccc2)OC(c2ccccc2)=C1 the results were YjeE inh inactive and PK Bst >57.
For Cc1ccc2c(c1)c1c3n2CCN(C(=O)Cn2c(-c4ccccc4)noc2=O)C3CCC1 (stereo not given) the results were YjeE inh inactive and PK Bst >57.
`Cc1csc(NC(=O)CSc2nnc(-c3ccccn3)n2-c2ccc(C)c(C)c2)n1` gave YjeE inh inactive and PK Bst >57.
Screening ON1C2CCCCC2N(O)C1c1c(F)c(F)c(F)c(F)c1F (stereo not given) returned YjeE inh inactive and PK Bst >57.
CC(C)c1ccc(S(=O)(=O)N2CCN(C(=O)c3cccc(F)c3)CC2)cc1 was read as YjeE inh inactive and PK Bst >57.
`NC(=O)c1ccccc1N/C=C/C(=O)c1ccccc1` gave YjeE inh inactive and PK Bst 2.47*.
`CCOC(=O)c1ccccc1NC(=O)c1cccs1` gave YjeE inh inactive.
Screening Cc1ccc(C(=O)COC(=O)c2ccc(Br)o2)cc1C returned YjeE inh inactive.
For COc1ccc(-c2noc(-c3ccco3)n2)cc1OC the results were YjeE inh inactive and PK Bst inactive.
Screening CCc1ccc2nc(NC3=NCN(CCOC)CN3)nc(C)c2c1 returned YjeE inh inactive.
COc1cccc(NC=C2C(=O)OC(C)(C)OC2=O)c1 was read as YjeE inh inactive.
For c1ccc2c(c1)CCCC2C1=NCCN1 (stereo not given) the results were YjeE inh inactive and PK Bst >57&>11.4.
CCN(CCNC(=O)C1CCN(S(C)(=O)=O)CC1)c1ccccc1 was read as YjeE inh inactive and PK Bst >57.
CCCn1c(C)nc2c(c1=O)c1nc3ccccc3nc1n2CCc1ccccc1 was read as YjeE inh inactive and PK Bst >57.
Screening O=C1C2C3C=CC(C3)C2C(=O)N1CCN1CCN(S(=O)(=O)c2ccc3ccccc3c2)CC1 (stereo not given) returned YjeE inh inactive.
`CSc1[nH]c(=O)c(C(=O)O)cc1C#N` gave YjeE inh inactive and PK Bst >57.
NC(N)=NCc1cccc(I)c1 was read as YjeE inh inactive.
Screening CCCN1C(=O)c2ccc(C(=O)Nc3cc(C)on3)cc2C1=O returned YjeE inh inactive and PK Bst >57.
`COc1cccc(OC)c1OCCNC[C@@H]1CSc2ccccc2O1` gave YjeE inh inactive.
COc1ccc(S(=O)(=O)NCc2ccc3c(c2)OCO3)cc1C(=O)O was read as YjeE inh inactive.
For CCc1ccccc1N=C1SCC(=O)N1C the results were YjeE inh inactive and PK Bst >57.
CC(C)c1ccc(NC(=O)c2cnn(-c3ccccc3)c2NC(=O)c2ccco2)cc1 was read as YjeE inh inactive.
Screening COC(=O)c1cc2sc(Cl)cc2n1CC(=O)N1CCCc2ccccc21 returned YjeE inh inactive and PK Bst >57.
For CCCC12CN3CC(C)(CN(C1)C31CCCCC1)C2=O the results were YjeE inh inactive and PK Bst >57.
For O=C(Oc1ccccc1)c1cccc(N2C(=O)CCC2=O)c1 the results were YjeE inh inactive.
`O=C(CSc1nnc(Cc2ccccc2)o1)NC1CC2CCC1C2` (stereo not given) gave YjeE inh inactive and PK Bst >57.
CN1CCN(c2ccc(Cl)cc2NC(=O)c2ccc(S(=O)(=O)N3CCCCCC3)cc2)CC1 was read as YjeE inh inactive and PK Bst >57.
`O=C(Cn1nnc(-c2ccccc2NC(=O)c2ccco2)n1)NC1CCCCC1` gave YjeE inh inactive and PK Bst >57.
CCCCCCC=O was read as YjeE inh inactive.
c1ccc(OCCCc2nc(-c3ccncc3)no2)cc1 was read as YjeE inh inactive and PK Bst >57.

Compounds from the list above with two or more sulfur atoms (four):
O=C(O)CSc1ccc(N=C=S)cc1 was read as YjeE inh inactive.
Screening Cc1csc(Sc2nc3c(c(=O)[nH]c(=O)n3C)n2Cc2ccccc2Cl)n1 returned YjeE inh inactive and PK Bst >57.
For NS(=O)(=O)c1ccc(CCNC(=O)C2CCCCN2S(=O)(=O)c2ccccc2)cc1 (stereo not given) the results were YjeE inh inactive and PK Bst >57.
`Cc1csc(NC(=O)CSc2nnc(-c3ccccn3)n2-c2ccc(C)c(C)c2)n1` gave YjeE inh inactive and PK Bst >57.

Further compounds follow:
CCn1c(-c2cc(Br)ccc2O)n[nH]c1=S was read as YjeE inh inactive.
Screening O=C(CSc1ncn[nH]1)Nc1cccc2ccccc12 returned YjeE inh inactive and PK Bst inconclusive.
C=CCn1c(SCC(=O)Nc2ccccc2OC)nnc1-c1ccccn1 was read as YjeE inh inactive and PK Bst >57.
For N#CCCn1c(=O)c(-c2cccs2)nc2cnc(N3CCNCC3)nc21 the results were YjeE inh inactive.
Screening O=C(CCN1C(=O)c2ccccc2C1=O)Nc1ccc2c(c1)OCCO2 returned YjeE inh inactive and PK Bst >57.
For CC(NC(=O)OCc1ccccc1)C(=O)N1CC(O)CC1C(=O)O (stereo not given) the results were YjeE inh inactive and PK Bst >57.
For c1ccc(-n2nnc3cnccc32)cc1 the results were YjeE inh inactive and PK Bst >57.
For Cc1nc(NC2=NCN(CCCN3CCOCC3)CN2)nc2c(C)cccc12 the results were YjeE inh inactive and PK Bst >57.
Screening c1ccc2c(c1)NC1(CCCC1)n1c-2nc2ccccc21 returned YjeE inh inactive and PK Bst inactive.
Screening CC(=O)COc1cc(C)cc2oc(=O)c(C)c(C)c12 returned YjeE inh inactive and PK Bst >57.
Cc1ccc(OCc2nc(C#N)c(NCCCn3ccnc3)o2)cc1 was read as YjeE inh inactive and PK Bst >57.
Screening O=C(NCCCN1CCOCC1)c1cc2c(s1)CSC2 returned YjeE inh inactive and PK Bst >57.
COc1ccc2c(CSc3nc4nc(C)cc(C)n4n3)cc(=O)oc2c1 was read as YjeE inh inactive and PK Bst >57.
COc1ccc(C(=O)NCC23C=CC(O2)C2C(=O)N(Cc4ccccc4)C(=O)C23)cc1 (stereo not given) was read as YjeE inh inactive.
CC1CCCC(NC(=O)C2CCN(S(=O)(=O)N3CCOCC3)CC2)C1C (stereo not given) was read as YjeE inh inactive and PK Bst >57.
CCn1c(SCC(=O)C(C)(C)C)nnc1-c1cnccn1 was read as YjeE inh inactive and PK Bst >57.
CCOC(=O)NC1(C(F)(F)F)NC(=O)N(Cc2ccco2)C1=O (stereo not given) was read as YjeE inh inactive and PK Bst >57.
For O=C(CN1C(=O)c2ccccc2C1=O)NC1(C(=O)O)CCCC1 the results were YjeE inh inactive.
C=CCn1c(SCC(=O)NC2CCS(=O)(=O)C2)nc2scc(C3CC3)c2c1=O (stereo not given) was read as YjeE inh inactive and PK Bst >57.

Compounds shown so far that contain an NH in an aromatic ring:
`CC(=O)c1c(C)[nH]c(C(=O)N2CCN(c3ncccn3)CC2)c1C` gave YjeE inh inactive.
`Nc1nc(SCc2ccc(Cl)cc2Cl)n[nH]1` gave YjeE inh inactive and PK Bst inconclusive.
COc1ccc2[nH]cc(CCNc3ccnc(-c4cccnc4)n3)c2c1 was read as YjeE inh inactive.
`CCc1c(C)[nH]c(=S)c(C#N)c1C` gave YjeE inh inactive and PK Bst >57.
Screening Cc1csc(Sc2nc3c(c(=O)[nH]c(=O)n3C)n2Cc2ccccc2Cl)n1 returned YjeE inh inactive and PK Bst >57.
Screening CSc1nncc(=O)[nH]1 returned PK Bst >25.6.
Screening CN(C(=O)CSc1nc2c(c(=O)[nH]1)CCCC2)C1CCCCC1 returned YjeE inh inactive and PK Bst >57.
COc1ccc(CCn2c(=O)[nH]c3cc(C(=O)NCCCN4CCOCC4)ccc3c2=O)cc1OC was read as YjeE inh inactive and PK Bst >57.
`CSc1[nH]c(=O)c(C(=O)O)cc1C#N` gave YjeE inh inactive and PK Bst >57.
CCn1c(-c2cc(Br)ccc2O)n[nH]c1=S was read as YjeE inh inactive.
Screening O=C(CSc1ncn[nH]1)Nc1cccc2ccccc12 returned YjeE inh inactive and PK Bst inconclusive.
